Assay outcomes deposited in PubChem BioAssay by National Center for Advancing Translational Sciences (NCATS).
Lassa entry inh – inhibitors of Lassa virus binding or cell entry. Lassa virus pseudotype entry inhibition, cell reporter; control for the full effect not named in the record. Potency, µM (doses to about 37.9 µM), without a hit: top-dose activity change, negative = inhibition, usual class: inhibitors. actives 1.2% (n = 300,000); active means well fitted inhibition curve with a large enough effect; inconclusive means small, poorly fitted or top-dose-only effect, or effect the other way; inactive means flat fitted curve, though single readings scatter; tested in HEK293 cells; further: on the % scale 0 is the no-effect control and ±100 the full control effect; nearly all actives have a fitted effect of over 50% in size; luciferase read-out
SARS PLpro yeast – blocks SARS-CoV papain-like protease in a yeast assay | Potency, µM (top dose mostly 32.9 µM), for inactives: top-dose activity, positive = growth rescue | actives 0.19% (n = 330,000) | S. cerevisiae expressing SARS-CoV PLpro, growth rescue; control for the full effect not named in the record; further: 0% is about no effect; nearly all actives have a fitted effect of over 55% in size; growth read by luminescence after 48 h
NS1 function inh – inhibitors of influenza NS1 protein function | S. cerevisiae slowed by influenza A NS1, growth recovery by OD600 | Potency, µM (titrated, usually from 46.1 µM), without a hit: top-dose activity, positive = more growth | actives 0.4% (n = 270,000); further: actives are rising curves; nearly all actives have a fitted effect of over 50% in size
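Growth recovery, yeast-based: influenza A NS1 expressed in S. cerevisiae causes slow growth, and suppressors are detected by OD600. The parent strain without NS1 is used as positive control.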
Cruzain noTriton – blocks cruzain activity in detergent-free assay; P25779; purified cruzain, Z-FR-AMC fluorescence, no detergent; Potency, µM, for the others: max response, negative = inhibition, most hits filed as inhibitors; actives 2.3% (n = 200,000); active means well fitted curve in the direction sought with a large enough effect; inconclusive means small, poorly fitted or top-dose-only effect, or another doubt; inactive means no such curve, though single readings can be large; an effect the other way counts as inactive or inconclusive;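 further: plate controls were enzyme without inhibitor for no effect and buffer without enzyme for full effect; nearly all actives have a fitted effect of over 40% in size; top concentration of the series not given in the record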
Target sequence (P25779 123-467 limits assumed): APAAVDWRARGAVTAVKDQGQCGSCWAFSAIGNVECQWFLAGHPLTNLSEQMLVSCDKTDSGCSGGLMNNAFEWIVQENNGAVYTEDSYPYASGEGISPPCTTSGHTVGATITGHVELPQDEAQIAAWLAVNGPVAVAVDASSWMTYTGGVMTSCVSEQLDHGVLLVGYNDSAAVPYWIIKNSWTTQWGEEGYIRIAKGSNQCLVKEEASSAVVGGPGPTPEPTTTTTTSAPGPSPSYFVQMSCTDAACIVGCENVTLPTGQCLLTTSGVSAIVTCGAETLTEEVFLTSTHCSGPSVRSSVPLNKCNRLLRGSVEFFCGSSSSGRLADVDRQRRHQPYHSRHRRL
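Detergent-free condition (0.00005% Triton X-100) in acetate buffer pH 5.5 with DTT. 1.5 nM enzyme and compound were pre-mixed 15 min, then 2 uM Z-FR-AMC substrate added; reaction progress from fluorescence change between first and third reads (60 s).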
RE007 growth inh – less growth of the S. pombe RE007 Vpr strain | actives 0.21% (n = 360,000) | Potency, µM (highest dose often 92.2 µM), without a hit: top-dose activity change, negative = less growth | S. pombe RE007 Vpr strain, BacTiter-Glo ATP luminescence, 24 h; control for the full effect not named in the record; active = well fitted falling curve with a large enough effect; inconclusive = small, poorly fitted or top-dose-only effect; inactive = no such curve, though single readings can be large or run the other way;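 further: on the % scale 0 is the no-effect control and ±100 the full control effect; nearly all actives have a fitted effect of over 50% in size; the assay follows cell death caused by Vpr and the record does not say whether a fall means rescue or toxicity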
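Fission yeast RE007 carrying one integrated HIV-1 vpr copy, seeded at OD 0.01 in PMG+AL medium with 23 nL pinned compound. Grown 24 h at 30 degrees; viability read by BacTiter-Glo luminescence after 5 min.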
2A StopGo – FMDV 2A StopGo reporter, luciferase signal | human cells with a luciferase reporter of 2A StopGo recoding; control for the full effect not named in the record | Potency, µM (titrated, usually from 57.9 µM), without a hit: at the top dose signal change, negative = less light | actives 1.2% (n = 410,000) | AID 1159524; active = well fitted falling curve with a large enough effect; inconclusive = small, poorly fitted or top-dose-only effect; inactive = no such curve, though single readings can be large or run the other way; tested in HEK293T cells; further: on the % scale 0 is the no-effect control and ±100 the full control effect; nearly all actives have a fitted effect of over 45% in size; luciferase light after 4 h
MARV entry inh – inhibitors of Marburg virus binding or cell entry. Marburg virus pseudotyped entry inhibition, cell reporter; control for the full effect not named in the record; about a third of the inactives were read at about 46 µM. Potency, µM (top dose mostly 37.8 µM), for inactives: top-dose activity change, negative = inhibition, most hits filed as inhibitors. actives 1.8% (n = 300,000). AID 540276; active = well fitted inhibition curve with a large enough effect; inconclusive = small, poorly fitted or top-dose-only effect, or effect the other way; inactive = flat fitted curve, though single readings scatter; tested in HEK293 cells; about a fifth of its hits are not listed in these tables; further: on the % scale 0 is the no-effect control and ±100 the full control effect; luciferase read-out
Cruzain Triton – blocks cruzain activity in presence of Triton detergent | P25779 | actives 0.43% (n = 200,000) | purified cruzain, Z-FR-AMC fluorescence, 0.01% Triton | AID 1478 | Potency, µM, for inactives: max response, negative = inhibition, usual class: inhibitors; active means well fitted curve in the direction sought with a large enough effect; inconclusive means small, poorly fitted or top-dose-only effect, or another doubt; inactive means no such curve, though single readings can be large; an effect the other way counts as inactive or inconclusive;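 further: plate controls were neutral wells for no effect and buffer without enzyme for full effect; nearly all actives have a fitted effect of over 40% in size; top concentration of the series not given in the record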
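15 min RT preincubation of 1.5 nM cruzain with compound, then 2 uM Z-FR-AMC added; kinetic AMC fluorescence, 60 s delta. Triton X-100 0.01%, pH 5.5.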
* hit, by the source's call; ? = inconclusive; / = not tested or not shown; [ ] = another dose, or the depositor's remark. Unless noted, the call rests on the fitted dose curve; in most records, active means well fitted rising curve with a large enough effect; inconclusive means small, poorly fitted or top-dose-only effect; inactive means no such curve, though single readings can be large or run the other way. Potency means the concentration at half of the fitted maximal effect.

SMILES | Lassa entry inh | SARS PLpro yeast | NS1 function inh | Cruzain noTriton | RE007 growth inh | 2A StopGo | MARV entry inh | Cruzain Triton
COc1ccc(CCNC(=O)CSc2nnnn2-c2ccc(OC)c(OC)c2)cc1OC | 11.3% | 1.9% | / | / | 10.3% | -22.2% | 16.8%[46.1 µM] | /
CCOc1ccc(CCN2C(=O)C3C4C=CC(C4)C3C2=O)cc1OCC (centres undefined) | / | -1.4% | -11.0% | 16.4% | 12.6% | -16.2% | / | 2.4%
Cc1ccc(S(=O)(=O)N2CCCC2C(=O)O)s1 (centres undefined) | 8.8% | 7.7% | 1.4% | 5.5% | -11.3% | -18.1% | -2.2% | 3.1%
Cc1c(Br)c([N+](=O)[O-])nn1C(C)C(=O)NCc1ccco1 (centres undefined) | 20.0% | -1.6% | -2.3% | 17.1% | 3.4% | -6.3% | -10.2% | -3.8%
Cc1ccc(CNS(=O)(=O)c2ccc(F)c(F)c2)n1C | 13.7%[46.1 µM] | -0.5% | 10.4% | / | -4.6% | 15.3% | 0.0%[46.1 µM] | /
COCCNC(=O)c1cccc(S(=O)(=O)N2CC3(C)CC2CC(C)(C)C3)c1 (centres undefined) | -15.6% | 1.2% | / | / | -8.6% | -7.8% | 2.7% | /
O=C(NCc1ccccc1)C(c1ccccc1)N(C(=O)c1csnn1)c1ccc(F)cc1 (centres undefined) | -5.0% | -0.1% | 1.1% | / | 4.6% | -13.6% | 0.3%[46.1 µM] | /
CC(C)CCOc1ccc(C(=O)CCNC(C)C(=O)O)cc1 (centres undefined) | / | -2.8% | -13.6% | 4.5% | / | / | -4.9% | 1.3%
CN(CC(O)COC(c1ccccc1)c1ccccc1)C1CCCCC1 (centres undefined) | ? | -1.7% | / | / | 4.9% | -24.2% | ? | /
CN(C(=O)COc1cc(=O)n(C)c2ccccc12)c1ccc(Br)cc1 | / | 4.4% | -38.0% | 13.9% | -4.8% | -20.7% | -3.4% | -2.1%
CC(C)(C)C1CCc2onc(C(=O)O)c2C1 (centres undefined) | 1.8%[46.1 µM] | 1.3% | 3.0% | / | 24.8% | -19.0% | 5.1%[46.1 µM] | /
CC(C)C(=O)Nc1cccc(NC(=O)c2cccc([N+](=O)[O-])c2)c1 | 1.9% | 0.2% | -2.0% | 8.5% | -10.8% | -2.8% | 2.1% | -1.5%
Cc1cc(=O)oc2cc(OCC(O)Cn3ccnc3)ccc12 (centres undefined) | 3.2%[46.1 µM] | 6.6% | -3.9% | / | -1.0% | 1.9% | -4.3%[46.1 µM] | /
COc1ccc(CCNC(=O)c2cc(Nc3cc(C)cc(C)c3)nc3ccccc23)cc1OC | -6.7%[46.1 µM] | / | / | ? | / | -1.7% | ? | -11.7%
COc1ccccc1CCNC(=O)C(=O)NCC(c1ccco1)S(=O)(=O)c1ccc(C)cc1 (centres undefined) | 8.9%[46.1 µM] | / | / | 0.8% | / | -24.2% | / | -2.4%
COc1ccc(/C=C/C(=O)Nc2ccc(C34CC5CC(CC(O)(C5)C3)C4)cc2)cc1OC | ? | 16.2% | 5.3% | ? | -11.5% | -29.7% | 6.51µM* | -6.9%
CN1C(=O)C(O)(C2CCCCCC2=O)c2ccccc21 (centres undefined) | / | 0.9% | 7.5% | / | 0.2% | -5.2% | / | /
O=C(CNc1cccc(F)c1)Nc1cccc(S(=O)(=O)N2CCCCC2)c1 | -9.4% | -0.6% | / | / | 0.4% | 17.2% | 0.8%[46.1 µM] | /
CCN1CCN(CCC(=O)Nc2cc(OC)cc(OC)c2)CC1 | 5.9% | -0.7% | 11.9% | / | 4.3% | -4.5% | -25.2% | /
CCOc1ccc(C(C)=O)cc1Cn1nc(C(=O)O)c2ccccc2c1=O | -5.3% | 5.8% | -0.8% | -15.3% | 34.0% | ? | ? | 1.6%
O=C(O)COc1ccc(C(NC(=O)c2c(F)cccc2F)NC(=O)c2c(F)cccc2F)cc1 | / | 0.7% | 3.2% | / | 9.7% | -5.7% | / | /
COc1ccc(-n2ncc(C(=O)N3CCN(c4ncccn4)CC3)c2C2CCN(C(=O)OC(C)(C)C)CC2)cc1 | -25.1%[46.1 µM] | / | / | -5.8% | / | 14.1% | / | 1.9%
CC(=O)N1CCCc2cc(S(=O)(=O)NCc3ccc(OC(C)C)cc3)ccc21 | ? | / | / | -4.1% | / | ? | / | 1.1%
CCCCNC(=S)NNC(=O)c1cc(C)on1 | 4.9% | ? | -6.7% | 5.5% | 6.6% | -16.3% | 16.9% | 4.1%
CC(=O)N1CCc2cc(Br)cc(S(=O)(=O)N3CCCCC3)c21 | -23.6%[46.1 µM] | -10.0% | 14.1% | / | 1.7% | 9.5% | -0.6%[46.1 µM] | /
COc1ccc(Cl)cc1NC(=O)CSc1nnc2[nH]c(=O)cc(-c3ccccc3)n12 | 0.9%[46.1 µM] | / | / | -3.7% | / | 10.9% | / | -0.9%
CSc1n[nH]c(-c2ccc(C(F)(F)F)cc2)n1 | 15.4%[46.1 µM] | -7.4% | 1.1% | / | -24.9% | 33.4%[activator] | ? | /
CCOC(=O)N1CCN(Cc2nc(-c3cccc(C)c3)no2)CC1 | ? | 5.9% | -2.3% | 20.4% | -11.3% | -7.8% | -13.9% | -2.2%
OCCN(CCO)CC(O)COCCC12CC3CC(CC(C3)C1)C2 (centres undefined) | -4.5% | -1.6% | -3.1% | 5.8% | 2.0% | 0.0% | ? | 3.3%
COC(=O)/C(C#N)=C1/SC=C(C)N1c1ccccc1 | 9.5% | -4.9% | -9.3% | -8.0% | 12.4% | -12.3% | 4.3% | -6.0%
O=C(Nc1ccccc1C(F)(F)F)C1CCN(C(=O)Cc2ccccc2)CC1 | 2.9% | -0.6% | -10.2% | / | -13.4% | -12.6% | 3.5% | /
CCOc1ccccc1OCCCC(=O)NCCc1ccc(S(N)(=O)=O)cc1 | -12.0%[46.1 µM] | 0.2% | -13.4% | / | -6.3% | 7.1% | 11.6%[46.1 µM] | /
CC(C)COC(=O)Cn1cnc2ccc(Br)cc2c1=O | 3.9% | -4.5% | -81.4% | 8.9% | -13.3% | 35.4%[activator] | 15.7% | -7.6%
COc1ccc(C2CC(=O)C3=C(C2)Nc2ccccc2N(C(C)=O)C3c2ccco2)cc1 (centres undefined) | 12.9% | -1.5% | -51.5% | -4.1% | 1.9% | 26.1% | -19.2% | -2.1%
O=C(COC(=O)c1cccc(Br)c1)NCCc1ccc(F)cc1 | 3.1% | 6.8% | -1.5% | -10.5% | 0.5% | -11.3% | 0.8% | 1.1%
CCOC(=O)CSc1cc(CS(=O)(=O)c2ccccc2)nc(-c2ccccc2)n1 | -19.7% | 0.1% | -1.0% | -6.9% | ? | -5.0% | ? | -4.1%
COc1ccc(NC(=O)CSc2nc3ccccc3c(=O)n2CCCN2CCCCC2)c(OC)c1 | -27.0% | 19.8% | 19.2% | -13.2% | -1.4% | -7.7% | ? | 1.7%
O=C(/C=C/c1ccc(S(=O)(=O)N2CCOCC2)cc1)N1CCN(c2ccccc2)CC1 | / | 0.1% | 5.8% | / | 5.0% | 31.6µM* | / | /
O=C(O)[C@H](Cc1ccccc1)NC(=O)C(c1ccccc1)(c1ccccc1)c1ccccc1 | / | 0.0% | 11.2% | / | 10.6% | -13.2% | / | /
Cc1ccc(/C=C2/SC(=S)N(CC(=O)Nc3ncc(Cc4ccc(C)cc4)s3)C2=O)cc1 | -16.6% | 9.2% | 5.6% | 3.98µM* | 7.4% | -15.3% | -23.6% | -4.0%
COc1ccc(CNC(=O)CN(C(=O)CCC(=O)Nc2ccccn2)c2cc(C)ccc2C)cc1 | -5.7% | -0.4% | -23.0% | / | -0.2% | 0.7% | ? | /
Cc1ccccc1CS(=O)(=O)Cc1ccc(C(=O)N2CCOCC2)o1 | 7.0% | 0.1% | -0.8% | 3.8% | 15.2% | -10.8% | ? | 1.7%
CCCC(=O)Nc1ccc2c(c1)C(=O)N(CCC(=O)O)C2=O | 1.9% | 3.5% | 1.0% | 17.0% | 15.4% | -9.8% | -2.1% | 1.9%
N=C1/C(=C/c2ccc(OCc3ccccc3)cc2)C(=O)N=C2SC(CC(=O)N3CCOCC3)=NN12 | -9.5%[46.1 µM] | -9.7% | -50.4% | / | 8.8% | 10.4% | ? | /
CSc1ccccc1OCc1cc(C(=O)NCCn2ccnc2C)no1 | 7.2% | 0.9% | 6.9% | / | 9.2% | -1.1% | 8.6% | /
O=C1NC(=Nc2ccc(Cl)cc2)SC1Cc1cccc(Cl)c1Cl (centres undefined) | ? | 18.4% | 7.4% | ? | -2.5% | ? | -25.4% | -2.8%
CC1CCCCC1NC(=O)c1cn(C)c2ccc(S(=O)(=O)N3CCCC3)cc2c1=O (centres undefined) | -15.7% | 2.9% | 5.9% | ? | 17.8% | 6.4% | ? | -6.2%
CC(=O)C1=C(c2ccccc2)N(C(C)=O)n2c(C)nnc2S1 | ? | -3.3% | 2.9% | / | 5.0% | -20.2% | ? | /
OC(CNC1Cc2ccccc2C1)COc1ccc(Cl)cc1 (centres undefined) | / | 0.4% | -2.4% | / | 0.5% | -12.4% | / | /
COc1ccc(S(=O)(=O)NCCN2CCOCC2)c2ccccc12 | 5.2% | 20µM* | 7.4% | -4.7% | -11.2% | / | -0.4% | -6.9%
CC(=O)N1CCc2cc(C(=O)CN3CCN(c4cccc(Cl)c4)CC3)ccc21 | / | -5.2% | -8.3% | -23.6% | 1.1% | -11.7% | / | -9.9%
C/C(=N\Nc1cc(C)nc(-c2ccccc2)n1)c1cccc([N+](=O)[O-])c1 | / | -0.6% | 5.8% | / | -2.1% | ? | / | /
CCOC(=O)c1c(C)oc2nc(C)nc(Nc3ccc(CC)cc3)c12 | 2.3%[46.1 µM] | / | / | -19.5% | / | 3.8% | / | -0.3%
